PINK1 expr mod = A Quantitative High throughput Screen to Identify Chemical Modulators of PINK1 Expression; PINK1 immunofluorescence, high-content cytometry, 24 h; Potency, µM (top dose mostly 76.6 µM), without a hit: top-dose activation (PINK1 increase), usual class: activators; 410,000 compounds, 0.2% hits; AID 624263, 2012; active = well fitted activation curve with a large enough effect; inconclusive = small, poorly fitted or top-dose-only effect; inactive = flat fitted curve, though single readings scatter; cell line not stated here;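 note: potency is the fitted concentration of half-maximal effect; % of control where 0% means no effect; nearly all actives have a fitted effect of over 65% in size; a mitochondrial uncoupler was the plate control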
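Measures PINK1 amount and localization on or inside mitochondria by immunofluorescence. Stable cells get compounds at 5 concentrations for 24 hours before fixation and staining; CCCP controls included.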
gsp ag = qHTS for Agonist of gsp, the Etiologic Mutation Responsible for Fibrous Dysplasia/McCune-Albright Syndrome: qHTS | gsp mutant cells, cAMP HTRF, 30 min; control for the full effect not named in the record | Potency, µM (top dose mostly 76.9 µM), for the others: at the top dose activation (cAMP increase), actives largely listed as activators | 340,000 compounds, 0.13% hits; active = well fitted activation curve with a large enough effect; inconclusive = small, poorly fitted or top-dose-only effect, or another doubt; inactive = no such curve, though single readings can be large or run the other way; cell line not stated here;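 note: phosphodiesterase inhibitor Ro 20-1724 added with compounds to block cAMP breakdown; potency is the fitted concentration of half-maximal effect; nearly all actives have a fitted effect of over 60% in size; about a fifth of the inactives were tested at one dose only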
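Cells in DMEM/10% FBS with G418 were pretreated with compounds in DMSO plus […] (300 uM stock) for 30 min at 37C. cAMP was measured by HTRF (cAMP-d2 plus anti-cAMP antibody-K) after 30 min at room temperature.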
Menin-MLL FL inh = qHTS Assay for Inhibitors Targeting the Menin-MLL Interaction in MLL Related Leukemias: Competition With Fluorescein Labeled MLL-derived Peptide. Fluorescence polarization, fluorescein-MLL peptide displacement from menin. FP activity change, % at 61.4 µM. 290,000 tested, under 10 active. AID 1766, 2009; inconclusive = falling polarisation curve, or a change in total fluorescence; inactive = total fluorescence flat and polarisation flat or rising; no compound was filed as active; the % refers to the polarisation; negative = inhibition;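 note: % of control where 0% means no effect; inhibitors lower the polarisation; unlabelled MLL peptide was the positive control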
gsp antagonist = qHTS for Antagonists of gsp, the Etiologic Mutation Responsible for Fibrous Dysplasia/McCune-Albright Syndrome: qHTS; gsp-mutant cells, cAMP HTRF, 30 min; control for the full effect not named in the record; Potency, µM (top dose mostly 76.9 µM), for inactives: at the highest dose activity change, negative = inhibition, usual class: inhibitors; 340,000 compounds, 0.4% hits; AID 624288, 2012; active = falling curve of any shape with a large fitted effect; inconclusive = falling curve, mostly with a smaller effect; inactive = flat or rising curve; cell line not stated here;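 note: intracellular cAMP measured with PDE inhibitor Ro 20-1724 present during compound exposure; potency is the fitted concentration of half-maximal effect; % is set by controls: 0 for no effect and ±100 for the full control effect; nearly all actives have a fitted effect of over 65% in size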
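G418-selected cells were plated in DMEM/10% FBS for 16-24 h at 37C, then treated with compounds plus the PDE inhibitor […] (300 uM solution added) for 30 min at 37C. Intracellular cAMP was measured by HTRF after 30 min lysis at room temperature.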
ClpP mod = qHTS Assay for Activators of ClpP; purified B. subtilis ClpP, FRET peptide cleavage, 20 min; 340,000 compounds, 1.9% hits; Potency, µM (top dose mostly 57.5 µM), inactives show at the top dose activity change, negative = active; ATP-dependent Clp protease proteolytic subunit (Bacillus subtilis (strain 168)), P80244; active = well fitted falling curve with a large enough effect; inconclusive = small, poorly fitted or top-dose-only effect; inactive = no such curve, though single readings can be large or run the other way; note: potency is the fitted concentration of half-maximal effect; the source files actives as falling curves though it sought activators and does not explain the sign; nearly all actives have a fitted effect of over 65% in size; many hits overshoot -100%
Target sequence (P80244 whole entry, looked up): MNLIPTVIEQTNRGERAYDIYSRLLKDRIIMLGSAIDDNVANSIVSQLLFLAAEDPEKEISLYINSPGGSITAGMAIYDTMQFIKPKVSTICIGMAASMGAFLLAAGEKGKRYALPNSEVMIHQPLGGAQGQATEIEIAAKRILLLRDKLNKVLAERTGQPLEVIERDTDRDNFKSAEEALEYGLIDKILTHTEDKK
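Purified B. subtilis ClpP, 10 microg/mL final in Tris/HCl pH8 with KCl, BSA, glycerol and Tween-20, cleaved an Abz/nitrotyrosine-quenched decapeptide. Fluorescence (ex 320, em 430) was read at 0 and 20 min at room temperature. Delta was normalized to 5.8 microM ADEP and DMSO/no-enzyme controls.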
D2 agonist = Beta-Arrestin HTS for Positive Allosteric Modulators of the Human D2 Dopamine Receptor: Agonists | activation, % (test concentration not listed) | DiscoveRx PathHunter D2 beta-arrestin, luminescence, 90 min; 100% = 57 uM dopamine signal | D(2) dopamine receptor (Homo sapiens), P14416 | AID 624465, 2012 | 360,000 compounds, 0.084% hits; in the data active = activation above about 40%; inconclusive = about 15% to 40%; inactive = below about 15%; note: compound concentration not given in the record; the text of the record calls up to 30% inactive
Target sequence (P14416 whole entry, looked up): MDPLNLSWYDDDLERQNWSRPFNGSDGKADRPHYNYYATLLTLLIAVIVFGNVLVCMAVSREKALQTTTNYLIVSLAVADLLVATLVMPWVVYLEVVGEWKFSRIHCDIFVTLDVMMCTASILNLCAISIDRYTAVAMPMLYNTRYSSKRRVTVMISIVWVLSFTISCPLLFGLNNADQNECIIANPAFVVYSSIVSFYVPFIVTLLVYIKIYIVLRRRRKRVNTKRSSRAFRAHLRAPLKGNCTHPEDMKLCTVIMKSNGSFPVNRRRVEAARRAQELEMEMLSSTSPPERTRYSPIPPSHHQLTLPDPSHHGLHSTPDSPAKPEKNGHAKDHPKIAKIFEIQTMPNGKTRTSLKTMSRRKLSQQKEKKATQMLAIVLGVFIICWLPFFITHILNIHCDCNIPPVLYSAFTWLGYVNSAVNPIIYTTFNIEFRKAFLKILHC
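DiscoveRx PathHunter D2 beta-arrestin cells (2,100/well) attached overnight, then compound-stimulated 90 min at 37 C in HBSS/10 mM HEPES/0.1% Tween-20 buffer; beta-galactosidase complementation read by luminescence after 1 h at ambient temperature. Dopamine 57 uM final (EC100) as control.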
Sfp PPTase inh = qHTS Assay for Inhibitors of Bacillus subtilis Sfp phosphopantetheinyl transferase (PPTase); Biochemical Sfp PPTase activity, qHTS; Potency, µM, inactives show max response, negative = inhibition, usual class: inhibitors; 310,000 compounds, 3.5% hits; active = well fitted inhibition curve with a large enough effect; inconclusive = small, poorly fitted or top-dose-only effect, or another doubt; inactive = no such curve, though single readings can be large or run the other way;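 note: the enzyme is Sfp with the accession as filed and its product quenches rhodamine fluorescence; potency is the fitted concentration of half-maximal effect; 0% = enzyme reaction without inhibitor and -100% = no enzyme wells; top concentration of the series not given in the record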
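Reaction rates are the 30-min fluorescence difference (ex 525, em 598 nm) in wells containing 15 nM Sfp, 5 uM rhodamine-CoA and 12.5 uM BHQ-2-YbbR at pH 7.6 with 10 mM MgCl2.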
* marks the source's active call; other numbers are inactive results; ? = inconclusive; . = not tested or not shown; & = joins results of further samples; [ ] = dose if it differs, or a comment.

# | smiles | gsp ag | gsp antagonist | D2 agonist | PINK1 expr mod | Sfp PPTase inh | ClpP mod | Menin-MLL FL inh
1 | COc1cccc2cc(C(=O)N3CCCCC3C)c(=O)oc12 (stereo unspecified) | 2% | 7% | -3.1 | -0.3% | -4% | 3.9% | 3.4
2 | Cc1cc(C)c2c(NC(N)=S)n[nH]c2n1 | -3%[15.4 µM] | -14% | 5.4 | 1.0% | -19% | . | 1.5
3 | CC(C)(C)NC(=O)C1CC(=O)N(CCc2ccc(F)cc2)C1 (stereo unspecified) | -13%[15.4 µM] | 14% | -3.0 | 1.8% | 19% | -1.0% | -11
4 | O=C(NCCCCc1ccccc1)c1cc([N+](=O)[O-])cc([N+](=O)[O-])c1 | 10% | -15% | 6.8 | 0.0% | 11% | . | -3.2
5 | CCCCc1c(C)nc(N)[nH]c1=O | 7% | 1% | 0.1 | -1.9% | 10% | 14% | 2.3
6 | CC(C)n1c(SCC(=O)NCc2ccco2)nc2c1c(=O)n(C)c(=O)n2C | 14% | -4% | 0.4 | -1.8%[38.3 µM] | 10% | -1.9% | -2.6
7 | O=C(Nc1cccc(Cl)c1)Nc1nnc(CSCCOc2ccc(Cl)cc2)s1 | -31% | -12% | 0.5 | ? | 21% | ? | 1.3
8 | Cc1cccn2c(=O)c3cc(C(=O)NCC4CCCO4)c(=N)n(C4CCCCC4)c3nc12 (stereo unspecified) | 11%[15.4 µM] | 21% | -2.1 | 1.4% | 13% | . | 1.5
9 | Cn1c(CN2CCCCC2)nc2cc(NC(=O)c3cccs3)ccc21 | -5% | -9% | 0.1 | ? | -5% | -7.5% | 11
10 | COc1ccc(NC(=O)COc2ccc(-c3nn(C)c(=O)c4ccccc34)cc2)cc1 | -2%[15.4 µM] | -9% | -1.4 | 9.4%&3.0% | 18% | -5.0% | -0.3
11 | Cc1nn(Cc2ccc(C(=O)Nc3nccs3)cc2)c(C)c1Cl | -46%[inhibitor] | 1% | 3.2 | 9.6% | -24% | 7.3% | 0.8
12 | COC(=O)c1cc(C)sc1NC(=O)CSc1ncccn1 | 0% | -19% | -0.7 | 1.0% | ? | 0.4% | .
13 | COc1c(Cl)ccc(Cl)c1C(=O)NCc1ccco1 | -41%[15.4 µM] | 10% | -6.9 | -0.6% | 16% | . | 0.9
14 | COc1cnn(-c2ccc(Br)cc2)c(=O)c1SCc1ccccc1 | -8% | ? | -8.6 | 1.3% | -8% | -0.9% | 7.5
15 | O=C(NNC(=S)NCc1ccco1)c1ccc(Cl)s1 | 5% | ? | -2.6 | 0.9% | 27% | 40% | 2.6
16 | O/N=C(\c1ccc2c(c1)OCCO2)C1CCCCC1 | -3% | 2% | -1.9 | 12% | 0% | -3.5% | 2.6
17 | CCOC(=O)c1cnn2c(C)cc(-c3ccc(F)cc3)nc12 | 0% | -6% | -1.6 | -0.4% | 17% | 28µM* | -1.1
18 | O=C1CC[C@@H](O)CCN1CC[C@H](Sc1ccc(Br)cc1)c1ccccc1 | -1% | -9% | -2.1 | 3.1% | . | -1.1%&3.5% | .
19 | O=C(NCCCN1CCN(CCCNC(=O)c2ccc3c(c2)OCO3)CC1)c1ccc2c(c1)OCO2 | 0% | 3% | -1.7 | -0.8% | 0% | -6.3% | -1.3
20 | CCc1nc2ccccc2c(C(=O)OCC(=O)Nc2ccc(NC(C)=O)cc2)c1C | -3% | -23% | 1.6 | -0.9% | . | 1.3% | .
21 | Cn1nc(C(C)(C)C)cc1C(=O)N1CCCCC1c1cc(C(=O)Nc2cccc(C#N)c2)no1 (stereo unspecified) | . | . | 6.6 | -1.3% | . | 2.4% | .
22 | O=S(=O)(NCC1CCCO1)c1ccc(-c2ccc(Cl)cc2)cc1 (stereo unspecified) | -18% | 9% | 1.1 | 0.5% | -11% | . | 2.0
23 | CCc1ccc(NC(=O)/C(C#N)=C\c2ccc(OC)c(C(=O)O)c2)cc1 | -10%[15.4 µM] | -20% | -1.3 | -0.1% | 15% | . | -3.8
24 | CCOC(=O)Cc1csc(NS(=O)(=O)c2cc(Cl)ccc2Cl)n1 | -1%[15.4 µM] | -1% | 2.2 | -1.0% | 3% | -0.8% | 17
25 | O=C(Nc1ccc2oc(-c3cccnc3)nc2c1)c1ccc2c(c1)OCCO2 | 6% | -1% | 0.0 | ? | -17% | . | 1.0
26 | Clc1ccc(CN2CCCCCCC2)cc1Cl | 11% | -4% | -1.6 | 2.7% | -25% | -0.2% | -0.7
27 | O=C(NCc1ccco1)/C(=C/c1ccc([N+](=O)[O-])cc1)NC(=O)c1ccco1 | -4%[15.4 µM] | -3% | -2.8 | -0.6% | 12% | . | .
28 | COc1ccc(CCNC(=O)Cn2nc(C)c3c(C)n(-c4ccccc4)nc3c2=O)c(OC)c1 | 26% | -26% | -2.0 | -2.0% | 17% | -1.0% | 1.8
29 | CC(C)(C)C(=O)N1CCN(CCN2C(=O)c3cccc4cccc(c34)C2=O)CC1 | 7%[15.4 µM] | 5% | 1.0 | -0.3% | 13% | -1.5% | -2.2
30 | O=C(COC(=O)/C=C/c1ccc(Cl)cc1)NCCc1ccccc1 | -13%[15.4 µM] | 1% | 3.7 | 0.1% | 6% | . | -8.2
31 | Cc1no[n+]([O-])c1COc1cccc(/C=C2\N=C(c3ccccc3)OC2=O)c1 | 17% | 4% | 0.6 | 8.7% | 2% | ? | 2.9
32 | CCOC(=O)C1=C(C)Nc2ccccc2N=C1N | -5%[15.4 µM] | 14% | 1.1 | 0.1% | 12% | . | -2.2
33 | CCOC(=O)c1c(C)[nH]c(C)c1S(=O)(=O)N(C)CC(=O)NCc1cccc(C)c1 | 28% | 7% | -3.5 | -0.1% | 13% | 1.8% | .
34 | CC(C)n1c(=S)[nH]c2ccccc2c1=O | 9% | 5% | -0.2 | -0.7%[38.3 µM] | -12% | -0.7% | -0.8
35 | Cc1nc(C(F)(F)F)c(C(=O)N=CN(C)C)s1 | 9%[15.4 µM] | 16% | -1.9 | 5.8% | 25% | . | 2.2
36 | O=c1c(-c2cccs2)nc2cnc(N3CCOCC3)nc2n1Cc1cccs1 | . | . | . | ? | 28% | . | ?
37 | CN1CCN(CCC(=O)N2c3ccccc3Sc3ccc(Cl)cc32)CC1 | 8% | -2% | 0.1 | . | 89µM* | 0.3% | -0.4
38 | O=c1[nH]c(-c2cccs2)nc2ccccc12 | 0% | 12% | -2.3 | -0.1% | 0% | -13% | 4.7
39 | COc1ccc(Br)cc1/C=N/Nc1ccccn1 | 8% | 7% | -6.3 | 4.2% | 6% | 0.7% | 1.2
40 | CC(=O)N1c2ccccc2CCc2ccc([N+](=O)[O-])cc21 | 2% | -7% | 3.0 | 1.4% | 10% | 1.3% | -2.2
41 | CCN(CC)C(=O)c1ccc(S(=O)(=O)c2ccccc2)cc1 | -1%[15.4 µM] | -33% | -0.4 | -0.2% | 10% | -0.8% | 4.6
42 | CCOC(=O)C(Cc1ccccc1)NC(=O)CCCC(=O)c1ccccc1 (stereo unspecified) | -13% | ? | -0.5 | -0.1% | 7% | 2.6% | -7.3
43 | CCC(=O)Nc1ccc(/C=C(\C(C)=O)C(=O)c2ccccc2)cc1 | 1%[15.4 µM] | -9% | -6.0 | 0.3% | -1% | -2.6% | 8.2
44 | CCN(Cc1nc2ccccc2c(=O)[nH]1)C(=O)COc1ccccc1Cc1ccccc1 | -3%[15.4 µM] | -25% | -1.3 | 4.0% | . | . | .
45 | C=CCn1c(SCC(=O)c2cc(C)n(CC3CCCO3)c2C)nnc1-c1ccccc1 (stereo unspecified) | -11% | -13% | 1.1 | 0.1% | -12% | -3.7% | 0.4
46 | Cn1c(SCC(=O)Nc2ccc(Cl)cc2)nnc1C1CC1 | 12%[15.4 µM] | 2% | -8.5 | 6.3% | 5% | -3.3% | -4.3
47 | COc1ccc(OCC(=O)NCc2nc(-c3ccccc3)no2)cc1 | 24%[15.4 µM] | 11% | -2.3 | 1.5% | . | . | .
48 | COc1ccccc1NC(=O)CN1C(=O)NC2(CCCc3ccccc32)C1=O (stereo unspecified) | 21% | 13% | -1.9 | 0.0% | . | -0.5% | .
49 | COc1cc(Cl)ccc1OCc1cc(C(=O)N2CCC(N(C)C)C2)no1 (stereo unspecified) | ? | 8% | -1.9 | 0.2% | 0% | -0.4% | -0.3
50 | Cc1ccc2c(c1)C1CN(C)CCC1N2C(=S)Nc1ccc(Cl)cc1Cl (stereo unspecified) | 21%[15.4 µM] | 14% | -2.8 | 2.6% | -6% | . | -0.5
51 | COc1ccccc1NC(=O)Cn1cnc2c1c(=O)n(C)c(=O)n2C | ? | 7% | 2.1 | 0.2% | 7% | 1.6% | -0.6
52 | Cc1ccc(C(C)NC(=O)c2ccc3c(c2)OCCO3)cc1C (stereo unspecified) | 10%[15.4 µM] | -4% | -1.1 | 4.8% | 9% | -0.1% | 0.6

Shown field by field: part of the list above.
#51 COc1ccccc1NC(=O)Cn1cnc2c1c(=O)n(C)c(=O)n2C
  gsp ag: ?; gsp antagonist: 7%; D2 agonist: 2.1; PINK1 expr mod: 0.2%; Sfp PPTase inh: 7%; ClpP mod: 1.6%; Menin-MLL FL inh: -0.6

#52 Cc1ccc(C(C)NC(=O)c2ccc3c(c2)OCCO3)cc1C (stereo unspecified)
  gsp ag: 10%[15.4 µM]; gsp antagonist: -4%; D2 agonist: -1.1; PINK1 expr mod: 4.8%; Sfp PPTase inh: 9%; ClpP mod: -0.1%; Menin-MLL FL inh: 0.6

Compound activity: PubChem BioAssay, National Center for Advancing Translational Sciences (NCATS)
